# Polio RdRp inh: inhibitors of poliovirus RNA polymerase binding and polymerization; % elongation, % (compound at 16.7 µg/mL); AID 588519; 150,000 tested, 0.66% active; poliovirus polymerase elongation, fluorescence polarization; active compounds read low; P03300; in the data active = % elongation below about 90%; note: some results filed as inactive read as strong as hits
# Target sequence (P03300 1749-2209 limits assumed): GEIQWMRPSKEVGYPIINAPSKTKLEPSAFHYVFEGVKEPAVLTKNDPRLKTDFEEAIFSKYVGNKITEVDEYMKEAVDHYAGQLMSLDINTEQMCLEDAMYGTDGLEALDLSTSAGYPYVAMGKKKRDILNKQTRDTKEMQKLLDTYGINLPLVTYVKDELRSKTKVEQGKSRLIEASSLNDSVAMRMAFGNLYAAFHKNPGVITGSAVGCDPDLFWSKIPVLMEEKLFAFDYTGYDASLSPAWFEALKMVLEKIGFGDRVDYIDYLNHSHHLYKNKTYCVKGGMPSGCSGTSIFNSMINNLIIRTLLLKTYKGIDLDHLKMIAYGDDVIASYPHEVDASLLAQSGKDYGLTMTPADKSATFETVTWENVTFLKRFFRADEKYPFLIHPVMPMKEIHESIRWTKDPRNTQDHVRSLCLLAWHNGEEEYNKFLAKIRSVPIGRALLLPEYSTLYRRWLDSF
# Polio RdRp inh intensity: also measured in Polio RdRp inh; calls as there; % elongation; measured here: total intensity read-out; formula for this scale not given here;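 total fluorescence in place of polarization; lower means less elongation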
# Starred values were filed as active, the others as inactive. An excerpt. The share of hits here may be higher or lower than overall.
# Values in the order – Polio RdRp inh | Polio RdRp inh intensity
- COc1ccccc1-c1nc2c(c(SCC(=O)Nc3c(C)cc(C)cc3C)n1)Cc1c(CO)cnc(C)c1O2
→ 104 | 103
- COc1ccccc1-c1nnc(C2CCN(C(=O)c3ccccc3C)CC2)o1
→ 106 | 107
- CCC1CN(C(=O)N2CCC(C(=O)NCc3ccccc3F)CC2)c2ccccc2O1 (configuration not stated)
→ 114 | 110
- COc1ccc(CNC(=O)C2CCN(S(=O)(=O)c3ccc4c(c3)CCCN4C(C)=O)CC2)cc1
→ 103 | 103
- CCCCN(CCCNC(=O)c1c(C)oc2nc[nH]c(=O)c12)Cc1ccccc1
→ 103 | 103
- Cc1oc(-c2ccc(Cl)cc2)nc1CN1CCCC(C(=O)NCc2ccccc2)C1 (configuration not stated)
→ 108 | 111
- CC1CCc2nc3ncn(Cc4cccc(F)c4)c(=O)c3cc2C1 (configuration not stated)
→ 107 | 110
- Cc1cccc(-n2ncc3c(N4CCN(c5ccccc5)CC4)ncnc32)c1
→ 103 | 95
- CC(C)c1nn2c(=O)cc(COC(=O)c3ccccc3NC(=O)c3cccs3)nc2s1
→ 111 | 108
- CCc1ccc(N2CC(c3nnc(NC(=O)c4ccco4)s3)CC2=O)cc1 (configuration not stated)
→ 97 | 100
- CCCCN(C)CC(O)Cn1cc(/C=C/C(=O)c2ccc(OCC)cc2)c2ccccc21 (configuration not stated)
→ 107 | 111
- COc1ccc(NC(=O)c2oc3ccccc3c2NC(=O)c2cc(=O)c3c(C)cc(C)cc3o2)cc1
→ 107 | 116
- CC(C)N(Cc1ccccc1)c1ncnc2c1nnn2C
→ 105 | 115
- CC(C)c1ccc(OCC(=O)N(Cc2ccc(N(C)C)cc2)C2CCS(=O)(=O)C2)cc1 (configuration not stated)
→ 104 | 107
- COc1cc(Cl)c(NC(=O)CN(C)S(=O)(=O)c2ccc3c(c2)CCCC(=O)N3)c(OC)c1
→ 113 | 112
- CCCCC(=O)Nc1cccc(-c2nc3ncccc3o2)c1C
→ 107 | 109
- O=C(CSc1nccn1Cc1ccco1)Nc1ccc(F)cc1
→ 107 | 107
- COc1ccccc1N1CCN(c2ncnc3onc(C)c23)CC1
→ 101 | 105
- COc1ccccc1CNC(=O)c1cc2cc3ccc(Cl)cc3nc2o1
→ 106 | 109
- O=C(Cn1ncc2c3ccccc3n(Cc3ccc(Cl)cc3)c2c1=O)NCCCc1ccccc1
→ 138 | 148
- CCCOc1ccc(C(=O)Nc2cc(-c3nc4cc(C)cc(C)c4o3)ccc2C)cc1
→ 99 | 108
- COc1ccc(CCC(=O)NC2CC(=O)N(c3ccc(F)cc3)C2)cc1 (configuration not stated)
→ 102 | 103
- Cc1cc(C)cc(-n2nnc(-c3nc(-c4ccc5c(c4)OCO5)no3)c2C)c1
→ 106 | 113
- COc1ccc(-n2ccnc2SCC(=O)Nc2nnc(C)s2)cc1
→ 106 | 100
- COc1ccc(OC)c([C@@H]2Nc3ccc(C(=O)O)cc3[C@@H]3C=CC[C@@H]32)c1
→ 81 | 156
- CCOC(=O)c1c(NC(=O)c2ccc(OCC)c(Br)c2)sc2c1CCCC2
→ 101 | 106
- Cc1ccccc1-c1noc(-c2ccc(N3CCOCC3)c([N+](=O)[O-])c2)n1
→ 113 | 116
- COc1ccc2[nH]cc(CCNC(=O)Nc3ccc(F)cc3)c2c1
→ 109 | 112
- COc1ccc(C(=O)Nc2ccc(N(C)Cc3ccccc3)c(C(=O)O)c2)cc1
→ 106 | 106
- Cc1ccc(CCNC(=O)CCCc2nnc3n(C)c(=O)c4sccc4n23)cc1
→ 100 | 101
- CCOc1ccccc1NC(=O)c1c(NCc2sccc2C)sc2c1CCC(C)C2 (configuration not stated)
→ 99 | 95
- CC(C)(C)OC(=O)N1CCC(c2c(C(=O)N3CCC(c4ccccc4)C3)cnn2-c2ccc(Cl)cc2)CC1 (configuration not stated)
→ 112 | 113
- Cc1cn2c(=O)cc(COC(=O)c3cccc(NC(=O)c4ccccc4C)c3)nc2s1
→ 108 | 115
- COc1ccc(-c2cc(C(F)(F)F)n3nc(C(=O)Nc4cccc(Cl)c4C)cc3n2)cc1
→ 106 | 111
- Cn1c(=O)c2c(nc(SCC(=O)Nc3ccc(F)cc3)n2Cc2ccc(Cl)cc2)n(C)c1=O
→ 103 | 102
- COc1cc(NS(=O)(=O)c2cccs2)cc(OC)c1
→ 107 | 107
- CCOc1ccccc1CNC(=O)CN1C(=O)c2cccnc2Oc2ccc(Cl)cc21
→ 109 | 95
- CCC(=O)N1CCc2cc(CNS(=O)(=O)c3ccc(C(C)C)cc3)ccc21
→ 106 | 112
- O=C(NCC(c1cccnc1)N1CCc2ccccc21)c1ccc(F)cc1 (configuration not stated)
→ 108 | 100
- COc1ccc(CCN2C(=O)c3[nH]nc(-c4ccccc4O)c3C2c2cccc(OC)c2)cc1 (configuration not stated)
→ 111 | 96
- Cn1nnc2c(NCc3ccccc3Cl)ncnc21
→ 112 | 94
- CC(C)c1ccc(C2CC(=O)Nc3cc4c(cc32)OCCO4)cc1 (configuration not stated)
→ 106 | 110
- COc1cccc(-c2nnc(-c3ccccc3NC(=O)c3ccc(F)cc3F)o2)c1
→ 104 | 109
- O=C(Nc1ccc2oc(-c3cc(Br)ccc3Cl)nc2c1)c1cc2ccccc2o1
→ 103 | 95
- CC(C)Cc1nn2c(=O)cc(COC(=O)c3cccc(NC(=O)CCc4ccccc4)c3)nc2s1
→ 109 | 108
- Cc1oc(-c2cccc(Cl)c2)nc1CN1CCCC(C(=O)NCCc2ccc(Cl)cc2)C1 (configuration not stated)
→ 106 | 108
- COc1ccc(CCNC(=O)CCCCn2c(=O)c3ccccc3n(Cc3ccc(Cl)cc3)c2=O)cc1OC
→ 102 | 106
- COc1ccc(S(=O)(=O)NCc2cccn2Cc2cc(C)ccc2C)cc1OC
→ 107 | 110
- COc1ccc(CCNC(=O)CS(=O)Cc2nc(-c3ccccc3F)oc2C)cc1OC (configuration not stated)
→ 103 | 105
- CCCNC(=O)c1c(NC(=O)c2ccccc2F)sc2c1CCCCC2
→ 106 | 113
- Cc1ccc(-c2nnc(Nc3ccc(O)cc3)c3ccccc23)cc1S(=O)(=O)N1CCN(C)CC1
→ 108 | 110
- CNS(=O)(=O)c1cn(CC(=O)N2CCN(c3ccccc3F)CC2)cc1S(=O)(=O)NC
→ 103 | 105
- COc1ccc(Cl)cc1NC(=O)C1CCN(c2nnc(C)c3c(C)n(-c4ccccc4)nc23)CC1
→ 107 | 109
- CCc1ccc(-n2c(=O)c3c4c(sc3n(CC(=O)c3ccc(Cl)cc3)c2=O)CCC4)cc1
→ 101 | 101
- CCc1ccc2occ(CC(=O)Nc3c(C(=O)Nc4ccc(C)cc4)oc4ccccc34)c2c1
→ 117 | 111
- CCOc1ccc(C(=O)NCc2ccc3c(c2)CCN3C(=O)c2ccc(Cl)cc2)cc1
→ 111 | 114
- Cc1c(C)n(C)c2ccc(C(=O)N3CCN(c4ccccc4)CC3)cc12
→ 110 | 103
- CCc1ccc(NC(=O)CSc2ccc3nc(-c4ccc(OC)cc4)cn3n2)cc1
→ 107 | 115
- Cc1ccccc1Cn1c(SCc2ccc(C(=O)NC3CCCC3)cc2)nc2ccncc21
→ 109 | 109
- Cc1ccc(CN2CCCn3nc(C(=O)NCc4ccccc4Cl)cc3C2=O)cc1
→ 101 | 105

# The results go on:
Molecule	Polio RdRp inh	Polio RdRp inh intensity
O=C(NCCS(=O)(=O)N1CCN(c2ccccc2F)CC1)C1CC(=O)N(c2ccc(F)cc2)C1 (configuration not stated)	104	99
Cc1ccccc1NC(=O)Cn1c(=O)n(Cc2ccco2)c(=O)c2ccc(C(=O)NC3CCCC3)cc21	106	110
C#CCn1cnc2c(cnn2-c2ccc(F)cc2)c1=O	111	111
CC1CCN(S(=O)(=O)c2ccc3c(c2)CCN3C(=O)Nc2ccc(Br)cc2F)CC1	113	112
O=C(CN1C=NS(=O)(=O)c2ccccc21)Nc1ccccc1F	107	109
CCS(=O)(=O)c1nc(S(=O)(=O)c2ccc(C)cc2)c(NC)s1	109	109
Cc1ccc(C)c(-c2nn(CC(=O)Nc3cc(F)ccc3F)c(=O)c3c2CCCC3)c1	110	112
CCOc1ccc(NC(=O)CN2C(=O)COc3ccc(S(=O)(=O)NC4CCCC4)cc32)cc1	102	112
COc1ccccc1/C=C/c1onc(C)c1S(=O)(=O)N1CCC(C(=O)N2CCC(C)CC2)CC1	104	107
COc1cccc(Nc2c3c(nc4nncn24)CCC3)c1	110	112
O=C(CSc1nc2c(c(=O)[nH]1)CN(Cc1ccc3c(c1)OCO3)CC2)Nc1ccc(F)c(F)c1	114	105
COc1ccc(NC(=O)CSc2nc3c(c(=O)[nH]2)CN(Cc2ccccc2)CC3)cc1Cl	107	105
COc1ccc(N2CCN(C(=O)CCNS(=O)(=O)c3ccc4c(c3)CCN4C(=O)C3CC3)CC2)cc1	104	108
Cc1ccc(Nc2c(-c3ccc(N(C)C)cc3)nc3nc[nH]n23)cc1	102	105
Cc1ccc(S(=O)(=O)Cc2nc(-c3ccc(C(=O)NCc4ccccc4)cc3)oc2C)cc1	107	101
Cc1cc(=O)n2c(C(=O)Nc3ccc(F)c(Cl)c3)c(C(=O)Nc3cccc(C)c3C)sc2n1	107	107
COc1ccc(N2CC(NC(=O)C3CCCCC3)CC2=O)cc1 (configuration not stated)	108	105
CCCCC12CN3CC(C)(CN(C1)C3c1ccc(O)c(OC)c1)C2=O (configuration not stated)	106	108
CCNC(=O)CC1C(=O)N(c2ccc(C)cc2)C(=O)N1Cc1ccc(C)cc1 (configuration not stated)	101	101
CCOc1ccc2nc(NC(=O)c3cccn(Cc4ccccc4C)c3=O)sc2c1	110	108
CCOC(=O)c1c(NC(C)=O)c2c3c(sc2n1Cc1nc(-c2ccccc2C)oc1C)CCCC3	106	111
COC(=O)C(C)NC(=O)N1CCN(c2nnc(C)c3c(C)n(-c4ccc(Cl)cc4)nc23)CC1 (configuration not stated)	108	113
CCC(C)(C)NC(=O)C1CCC(CNS(=O)(=O)c2ccc3c(c2)CC(C)N3C(C)=O)CC1 (configuration not stated)	114	119
O=C(CSc1nnc(-c2cccc(F)c2)c(-c2cccc(F)c2)n1)NC1CCCCC1	111	115
COc1ccccc1C(=O)Nc1c(C(=O)N2CCN(c3ccccc3F)CC2)oc2ccccc12	99	103
Cn1nnc2c(NCCc3ccccc3)ncnc21	109	103
COc1cc2oc(=O)c(CC(=O)NCc3ccc(OC)c(OC)c3)c(C)c2cc1Cl	110	110
COc1ccccc1N1CCN(S(=O)(=O)c2cc(-c3cc(C)no3)ccc2C)CC1	114	111
COC(=O)c1sccc1S(=O)(=O)N(CC(=O)NCc1ccc(F)cc1)c1ccc(Cl)cc1	107	109
COc1ccc(CCNC(=O)c2cc(=O)[nH]c3ccc(S(=O)(=O)N4CCCCC4)cc23)cc1OC	110	107
O=C(NCc1cccc(Cl)c1)C1CCN(c2nn3cc(-c4ccc(F)cc4)nc3s2)CC1	105	111
O=C(NC1CC(=O)N(c2ccc(Cl)cc2)C1)c1cc2ccccc2o1 (configuration not stated)	104	111

# Overlap with the part before: two compounds, then new ones.
Molecule	Polio RdRp inh	Polio RdRp inh intensity
O=C(NCc1cccc(Cl)c1)C1CCN(c2nn3cc(-c4ccc(F)cc4)nc3s2)CC1	105	111
O=C(NC1CC(=O)N(c2ccc(Cl)cc2)C1)c1cc2ccccc2o1 (configuration not stated)	104	111
Oc1ccc(-c2nc(-c3ccccc3)c(-c3ccc(Br)cc3)[nH]2)cc1	109	111
CCOc1ccccc1C(=O)NC1(C(F)(F)F)NC(=O)N(CCc2ccc(OC)c(OC)c2)C1=O (configuration not stated)	105	109
Cc1cc(Cl)ccc1Nc1ncnc2onc(C)c12	109	110
Cc1ccc(Cl)cc1N1CCN(CCCNC(=O)Cn2ncc3c([nH]c4ccccc43)c2=O)CC1	104	107
COc1ccccc1NC(=O)c1cc(=O)c2ccc(C)c(C)c2o1	106	111
Cc1nc2c(-c3ccc(F)cc3)c(C)nn2c(C)c1CCC(=O)N1CCN(c2ccc(F)cc2)CC1	106	107
CCc1ccccc1NC(=O)Nc1nnc(N(C)Cc2ccccc2)s1	104	109
Cc1ccccc1C(=O)NC1(C(F)(F)F)C(=O)Nc2c1c(=O)[nH]c(=O)n2-c1ccc(F)cc1 (configuration not stated)	108	105

# 6 entries drawn at random from those above:
Molecule	Polio RdRp inh	Polio RdRp inh intensity
CCC(C)(C)NC(=O)C1CCC(CNS(=O)(=O)c2ccc3c(c2)CC(C)N3C(C)=O)CC1 (configuration not stated)	114	119
CCS(=O)(=O)c1nc(S(=O)(=O)c2ccc(C)cc2)c(NC)s1	109	109
COc1ccc(-n2ccnc2SCC(=O)Nc2nnc(C)s2)cc1	106	100
Cc1oc(-c2cccc(Cl)c2)nc1CN1CCCC(C(=O)NCCc2ccc(Cl)cc2)C1 (configuration not stated)	106	108
Cc1cn2c(=O)cc(COC(=O)c3cccc(NC(=O)c4ccccc4C)c3)nc2s1	108	115
CCOc1ccc(NC(=O)CN2C(=O)COc3ccc(S(=O)(=O)NC4CCCC4)cc32)cc1	102	112

# (next part)
Molecule	Polio RdRp inh	Polio RdRp inh intensity
COc1ccc(-c2cc(C(C)=O)c(C)n2CCC(=O)NCc2ccc(C)cc2)cc1	104	104
CCOC(=O)C1=C(CNCc2ccc(Cl)cc2)NC(=O)NC1c1ccccc1 (configuration not stated)	107	104
Cc1ccc2c(c1)c(=O)c(C(=O)c1ccncc1)cn2CC(=O)Nc1ccc(C(C)C)cc1	113	117
COc1ccccc1NC(=O)N1CC=C(c2c[nH]c3ccccc23)CC1	133	171
O=C(CSc1nccn1Cc1ccccc1)Nc1nc2ccccc2s1	110	106
CC(C)Cn1cc(NC(=O)NCc2ccccc2)c2ccccc2c1=O	12*	41*
CC(=O)c1cc(-c2ccccc2)n(CCC(=O)Nc2ccc(C(C)C)cc2)c1C	106	90
CC(=O)c1ccc(NC(=O)c2cc3sccc3n2Cc2ccc(F)cc2)cc1	107	110
O=C(Cn1nc(N2CCN(c3ccccc3)CC2)ccc1=O)Nc1ccc(F)cc1F	110	107
O=C(CN1C(=O)CCSc2ccc(S(=O)(=O)N3CCCC3)cc21)Nc1ccccc1	104	101
O=C(NCc1cccc(F)c1)c1ccc2nc(N3CCCCC3)sc2c1	111	113
COc1cc(C(=O)N2CCc3c([nH]c4ccccc34)C2c2ccccc2)cc(OC)c1OC (configuration not stated)	103	107
Cc1ccccc1CNC(=O)C1CCCCN1S(=O)(=O)c1ccc(F)cc1 (configuration not stated)	108	104

# Screening results from PubChem.
